LANA-H2A inh: blocks KSHV LANA binding to histone H2A/H2B; 0.6% of 320,000 active; inhibition, % (test concentration not listed); Q9QR71; AID 2629; cell-free LANA-H2A/H2B peptide, fluorescence polarization; in the data active means inhibition mostly above about 10%, no sharp cut-off; inactive means mostly below about 6.7%;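 further: stock transfer was 7.5 nL into about 10 µL; 0% = median of vehicle wells and 100% = median of positive control wells; one replicate is shown; the record names a cut of 25% in any replicate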
T cruzi inh: blocks replication of Trypanosoma cruzi; AID 1885; inhibition, % (concentration not given with the values); 1.4% of 300,000 active; T. cruzi beta-gal in NIH3T3, luminescence, 90 h;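 active means mean inhibition across valid replicates above about 55%, limit read from the data; inconclusive means mean below that limit but half or more replicates reach it; inactive means mean below it, under half of replicates reach it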;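 further: signal also drops with host cell toxicity which is not excluded here; 0% = plate median of DMSO wells and 100% = zero luminescence signal; higher percent means less beta-gal luminescence so fewer parasites; stock transfer was 50 nL into about 50 µL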
rRNA inh HTS: inhibitors of bacterial rRNA selective over humanized ribosomes. E. coli WT GFP vs humanized-ribosome RFP mutants, fluorescence, 24 h; hits give low values; DMSO median 0, no signal -100. GFP signal change (wild-type ribosome), % (test concentration not listed). 1.6% of 350,000 active. AID 720706;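 active means significant combined selectivity score with lowered wild-type GFP, culture density cut under 30%, mutant RFP and density less affected; inactive means any of these conditions unmet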; further: one replicate is shown; some compounds called inactive have numbers as strong as hits
Beta2AR agonist: activates human beta-2 adrenergic receptor causing internalization | Am2.2-beta2AR cells, FAP receptor internalization, flow cytometry; reference of the scale not given here | response, % (test concentration not listed) | 0.43% of 340,000 active | P07550;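 active means response above a set limit, near 3 SD of response in nonfluorescent compounds, cut at about 42% in these data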;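 further: stock transfer was 100 nL into about 11 µL; a reference agonist was the positive control; negative values mostly stem from fluorescent compounds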
Target sequence (P07550 whole entry, looked up): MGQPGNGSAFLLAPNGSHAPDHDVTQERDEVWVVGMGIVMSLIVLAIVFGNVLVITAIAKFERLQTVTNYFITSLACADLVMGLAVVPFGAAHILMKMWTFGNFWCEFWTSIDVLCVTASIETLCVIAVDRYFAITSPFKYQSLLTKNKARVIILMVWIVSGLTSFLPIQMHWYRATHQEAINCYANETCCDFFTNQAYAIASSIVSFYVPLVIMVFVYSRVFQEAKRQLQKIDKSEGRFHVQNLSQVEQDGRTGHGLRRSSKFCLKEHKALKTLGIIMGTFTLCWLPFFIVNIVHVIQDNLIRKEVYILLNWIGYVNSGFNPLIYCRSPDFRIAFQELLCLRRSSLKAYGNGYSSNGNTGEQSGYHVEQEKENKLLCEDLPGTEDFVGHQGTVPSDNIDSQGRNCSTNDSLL
Bfl-1 A1 inh: inhibitors of the anti-apoptotic protein A1, read as caspase activation | MEF A1-2A-BIM cells, Caspase-Glo 3/7 luminescence, 3 h; percent of clofoctol response, vehicle zero | caspase activation, % (concentration not given with the values) | 0.066% of 330,000 active;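 active means over half of replicate activation scores above 10%, or exactly half above 10 with the replicate mean above 10; inconclusive means replicate mean below 10 yet half the replicates above 10; inactive means over half of replicates below 10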;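 further: wells of about 30 µL received 50 nL stock; many hits fall short of the cut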
Beta cell apopt: blocks beta cell apoptosis | INS-1E cytokine-induced death, ATP luminescence, 48 h; percent of positive-control rescue, neutral wells zero | protection from apoptosis, % (no concentration beside the values) | 0.8% of 300,000 active;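 active means all replicates at 75% or more, or half of them and the mean; inconclusive means half reach 75% but not the mean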;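 further: 0% = cytokine-treated negative control wells and 100% = positive control rescue; higher means more ATP so stronger rescue from cytokine killing; wells of about 40 µL received 100 nL stock; the first replicate is given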
Calb FLC: C. albicans growth modulation with fluconazole; C. albicans CaCi-2 (fluconazole-resistant clinical isolate) + fluconazole, Alamar Blue growth, 48 h; growth inhibition, % (no concentration beside the values); 0.57% of 300,000 active; AID 1979;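 active means most replicates above 75%; inconclusive means exactly half above 75%; inactive means most below 75%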;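 further: all wells also contain fluconazole at 8 µg/ml as a sub-toxic cotreatment; 0% = median of DMSO wells and 100% = median of geldanamycin control wells; wells of about 8 µL received 7.5 nL stock; the first replicate is given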
ALR H2O2 inh: human ALR oxidase inhibition via reduced H2O2; P55789; purified ALR, DTT oxidation, H2O2 HRP-luminol luminescence; inhibition, % (no concentration beside the values); 3.8% of 290,000 active; AID 485317;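 active means mean and each replicate at 75% or more; inconclusive means only one of the two met; inactive means neither met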;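 further: stock transfer was 7.5 nL into about 7.5 µL; 0% = neutral wells and 100% = wells with inactivated enzyme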
Target sequence (P55789 whole entry, looked up): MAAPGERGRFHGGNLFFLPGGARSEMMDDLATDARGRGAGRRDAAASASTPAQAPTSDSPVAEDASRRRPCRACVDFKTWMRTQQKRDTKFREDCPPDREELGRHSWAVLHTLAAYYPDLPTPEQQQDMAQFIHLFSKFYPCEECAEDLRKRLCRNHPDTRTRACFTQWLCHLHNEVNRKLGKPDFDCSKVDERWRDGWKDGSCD
rRNA inh HTS OD600: recorded beside rRNA inh HTS, whose call it bears; OD600 change, %; measured here: OD600 growth;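 optical density of the mix in the first replicate; 0 = DMSO median and -100 = no signal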
rRNA inh HTS RFP: second read-out of rRNA inh HTS, no call of its own (marks repeat the call); RFP signal change, %; measured here: RFP humanized mutant strains;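 first replicate; 0 = DMSO median and -100 = no signal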
* marks the source's active call; other numbers are inactive results; ? = inconclusive; . = not tested or not shown. Only part of the results is shown. The share of hits here may be higher or lower than overall.

SMILES	LANA-H2A inh	T cruzi inh	rRNA inh HTS	rRNA inh HTS OD600	rRNA inh HTS RFP	Beta2AR agonist	Bfl-1 A1 inh	Beta cell apopt	Calb FLC	ALR H2O2 inh
Cc1nnc(NC(=O)CSc2nnc(Cc3cccn3C)n2C)s1	2.9	-5	3	-1	-5.6	-2	-1.0	-6	-9	27
Cc1ccc(N2CCN(CC(O)COC3CCCCC3)CC2)cc1 (configuration not stated)	6.4	12	.	.	.	-2	0.2	-7	-7	14
CC(C)N1C(=O)S/C(=C/c2cccnc2)C1=O	-1.3	-8	.	.	.	4	0.3	-13	-8	24
Cc1cc(=O)[nH]c(SCC(=O)NN(c2ccccc2)c2ccccc2)n1	-5.7	8	6	3	4.1	10	0.1	-2	17	-3
CC(=O)c1c(O)c2ccccc2n(C2CCCCC2)c1=O	5.2	-19	7	13	-0.8	-1	0.1	-4	26	-1
CN(C(=O)COC(=O)c1ccc(-c2ccc(O)cc2)cc1)C1CCS(=O)(=O)C1 (configuration not stated)	-3.6	2	14	1	-1.3	-11	-2.4	4	-4	39
COc1cccc(CC(=O)Nc2nc(-c3ccc(F)c(F)c3)cs2)c1	2.7	2	-12	-6	0.1	0	-0.5	-5	-6	-2
CC1C(=O)N(Cc2cccc(F)c2)c2ccccc2N1C(=O)c1ccccc1 (configuration not stated)	3.6	19	-28	-40	-18	-8	-0.6	-5	2	-5
CC(=O)Nc1cccc(NC(=O)C2CCCN2C(=O)Nc2ccc(C)cc2)c1 (configuration not stated)	4.7	1	.	.	.	-9	1.3	-2	24	-9
Cc1cccn2c(=O)c3cc(C(=O)NCCCOC(C)C)sc3nc12	1.7	-6	9	8	5.4	-5	-8.7	7	21	3
CC1CCN(C(=O)C2CCN(S(=O)(=O)c3cccc4nsnc34)CC2)CC1	-0.1	2	9	2	-1.2	-2	-0.6	2	-1	-13
Cc1nc2c(C(=O)NCc3cccs3)cnn2c(C)c1Cc1ccc(F)cc1	2.0	17	6	3	6.6	.	0.1	12	1	4
O=C(COc1ccccc1Cl)Nc1cc(NC(=O)COc2ccccc2Cl)cc(C(=O)O)c1	0.2	-11	2	7	0.9	-2	1.1	.	-5	-1
CN(C)C(=O)N1CCCC(C(=O)NCc2ccccc2Cl)C1 (configuration not stated)	1.5	-13	.	.	.	-1	1.2	-3	-2	-6
CC(C)CCNC(=O)CN(CC1CCCO1)C(=O)CCC(=O)Nc1ccccn1 (configuration not stated)	0.8	-6	.	.	.	-3	-0.6	-2	1	0
O=C(NC1CC1)c1ccc(Cl)c(S(=O)(=O)N2CCOCC2)c1	-5.9	-21	2	-2	0.8	-6	0.2	-2	-11	2
O=C(NCc1ccco1)c1ccccc1SCC(=O)N1CCCC1	4.0	.	.	.	.	3	-1.1	-1	.	1
COc1ccc(Nc2nnc(C)c(=O)[nH]2)cc1	-0.9	-5	.	.	.	2	-0.2	-1	-3	-10
c1ccc2c(c1)nc1n2CN(Cc2ccc3c(c2)OCO3)CN1	-1.8	29	.	.	.	-1	-0.2	0	-14	-4
CC(=O)c1c(C)n(-c2ccc(N(C)C)cc2)c2ccc(OCC(N)=O)cc12	-13	7	.	.	.	-3	-0.6	5	-8	71
COc1ccc(OCC(=O)N2CC3(C)CC2CC(C)(C)C3)cc1 (configuration not stated)	0.4	6	.	.	.	8	0.5	0	?	-2
CCc1nccn1-c1cc(C(C)(C)C)nc2c(-c3ccc(Cl)cc3)cnn12	-7.3	-25	10	6	0.1	-14	0.7	.	2	2
Cc1c2cnn(CC(=O)NCCCN3CC(C)CC(C)C3)c(=O)c2c(C)n1Cc1ccc(Cl)cc1 (configuration not stated)	-3.0	29	1	-10	1.3	25	-0.1	.	19	1
CCOc1ccccc1OCC(=O)N/N=C(\C)Cc1ccc(OC)cc1	-0.7	-3	4	11	-2.4	-2	-0.2	-3	2	33
CCC(=O)Nc1ccc(C(=O)NNC(=O)c2ccc(C)cc2)cc1	5.1	-15	7	4	2.5	-10	0.0	1	5	-1
Cc1nc(SCC(=O)Nc2ccc(OCc3ccccc3)cc2)n[nH]1	-2.6	-12	-16	-19	10	-3	-0.2	4	0	.
CC(=O)NCCc1nc2ccccc2n1Cc1ccccc1	1.3	8	13	7	-1.6	-2	0.6	5	6	-1
COc1ccc2cc(/C=N/NC(=O)c3ccc(CN(c4ccc(C)c(C)c4)S(C)(=O)=O)cc3)c(Cl)nc2c1	-1.1	27	.	.	.	2	-1.5	7	44	-6
O=C(COc1cc(O)c2c(=O)cc(-c3ccccc3)oc2c1)c1cccc([N+](=O)[O-])c1	-3.8	-4	1	9	0.6	-2	0.4	15	7	.
CCC(=O)Nc1ccc(N2CCCCC2)cc1	-2.7	-3	.	.	.	4	0.2	0	-22	.
Cc1ccc(S(=O)(=O)NCC23C=CC(O2)C2C(=O)N(c4ccccc4)C(=O)C23)cc1 (configuration not stated)	1.0	-8	.	.	.	9	-1.1	-4	-4	8
Cc1ccc(CNC(=O)Cc2csc(Nc3nc(=S)[nH]c4ccccc34)n2)cc1	2.0	21	-1	18	8.1	.	1.1	0	35	7
CCOC(=O)c1c(C=O)c(C)n(Cc2ccc(Cl)cc2)c1C	-4.6	12	.	.	.	-2	1.6	-9	7	3
CCOc1ccc(C(=O)Nc2cccc3ncccc23)cc1Cl	9.1	-5	3	12	-2.0	0	1.5	3	2	2
Cc1ccc(OCCN2CCCCCC2)c(C)c1	0.7	39	.	.	.	6	-1.6	1	-3	-1
NC(=O)C1CCN(CC(=O)N2c3ccccc3CCc3ccccc32)CC1	1.4	-12	.	.	.	-4	0.2	-7	-2	25
CC(C)CN1C(=O)C(=O)N(CC(=O)c2ccc[nH]2)C1=O	.	-1	9	12	0.5	17	-1.3	-9	-6	.
COc1ccc(N=Nc2c(C)n[nH]c2C)cc1	-0.9	-1	-16	-15	-5.3	-2	-2.2	0	0	-2
CCOC(=O)c1nc(NNC(C)=O)sc1C	12	-4	14	6	1.0	-7	1.0	1	-5	13
Cc1nc(-c2c(C(F)(F)F)noc2-c2ccc(O)cc2O)cs1	0.1	-12	-50	-70	-28	-4	0.8	-7	7	34
O=C(NNC(=O)c1ccccc1OCc1ccccc1Cl)c1csc(N2CCOCC2)n1	5.4	38	3	-5	7.4	8	-1.2	24	9	-2
O=C(COc1ccccc1)NC(=S)N1CCc2ccccc21	0.1	-25	.	.	.	-6	-0.5	-1	-10	-2
CCCCCCOc1ccc(C(=O)n2cnc(N)n2)cc1	-1.5	-7	.	.	.	-7	0.1	-3	-14	-37
O=C(Nc1nc(-c2ccccn2)cs1)c1ccc2c(c1)OCCO2	5.9	49	-7	-7	2.3	-4	-0.5	5	-18	-4
COCCN1C(=NCCCOC(C)C)N[C@@H](c2ccccc2)C(C(=O)OC)=C1C	0.6	-12	5	7	22	-1	2.7	1	-8	-12
O=C(CCNC(=O)Cn1cnc2ccccc2c1=O)NCC1CCCO1 (configuration not stated)	0.3	-3	13	14	1.1	3	-0.4	-5	-4	-5
Cc1ccccc1N/C(=C(/C(Cl)=C(Cl)Cl)[N+](=O)[O-])n1nnc2ccccc21	5.2	-2	-1	-8	2.5	5	0.5	1	8	-13
O=C(COC(=O)CNC(=O)c1ccc([N+](=O)[O-])o1)Nc1ncc(C(F)(F)F)cc1Cl	-1.1	.	-17	3	-8.2	6	-0.2	-9	.	-31
COc1cccc2c(SCC(=O)N/N=C/c3ccccc3)cc(C)nc12	-2.0	-1	2	5	7.9	-12	-0.1	-21	9	99*
Cc1cc(C)cc(NS(=O)(=O)c2ccc3c(c2)c(=O)n(C)c(=O)n3C)c1	4.9	1	-8	-17	-5.8	-5	0.2	8	-3	-1
(next part)
SMILES	LANA-H2A inh	T cruzi inh	rRNA inh HTS	rRNA inh HTS OD600	rRNA inh HTS RFP	Beta2AR agonist	Bfl-1 A1 inh	Beta cell apopt	Calb FLC	ALR H2O2 inh
Cn1c(=O)[nH]c(=O)c2c1[nH]c(=S)n2CCCc1ccccc1	.	-7	5	15	3.4	-2	.	.	1	.
CCc1c(C)nc(Nc2nc(C)c3cc(OC)ccc3n2)[nH]c1=O	-10	9	.	.	.	0	-0.9	11	2	-7
CC(=O)N[C@@H](Cc1c[nH]c2ccccc12)C(=O)OCc1ccc(C#N)cc1	-4.2	-10	3	-2	-0.9	7	0.5	6	0	-7
CNC(=O)CN1C(=O)CSc2ncccc21	8.9	-6	9	14	2.3	1	0.4	.	-6	-36
CCC(=O)N1CCN(c2ccccc2NC(=O)c2cccs2)CC1	3.6	-12	0	-3	-1.3	18	1.7	-2	5	-1
CCCc1[nH]nc2c1C(c1ccc(OC(=O)N3CCOCC3)c(OC)c1)C(C#N)=C(N)O2 (configuration not stated)	1.4	-8	.	.	.	3	1.4	.	-4	11
CNC(=S)Nc1ccc(C23CC4CC(CC(C4)C2)C3)cc1	2.4	45	.	.	.	0	0.2	16	-36	22
Cc1ccc(C(=O)/C=C/c2ccco2)c(O)c1	11	-13	.	.	.	-3	0.1	-6	-1	98*
Cc1ccc(-c2nn(-c3ccc(F)cc3)cc2C(=O)N(C)CC(=O)Nc2ccc(N3CCOCC3)cc2)cc1	3.1	12	1	9	2.6	-5	0.2	-1	-11	-1
COc1ccc(/C=C2\SC(=O)N(CCC(=O)N3CCCCC3CCO)C2=O)cc1 (configuration not stated)	-1.9	10	5	9	-0.7	8	0.1	-4	0	1
COC(CSc1nc(N)c2c3c(sc2n1)CN(C)CC3)OC	1.9	4	8	15	0.2	13	0.1	6	6	-25
CCN1CCN(c2nc(-c3cccs3)nc3ccccc23)CC1	-0.7	26	12	6	-6.9	-21	-0.8	-3	-8	3
CCn1c(SCc2nc3ccccc3nc2C)nnc1-c1cccs1	-0.3	7	.	.	.	1	-0.2	0	1	1
CSc1nc(Cl)c(Cc2ccc(OC(C)C)cc2)c(N2CCOCC2)n1	1.3	22	.	.	.	-2	0.0	5	3	3
Cc1ccccc1OCCNc1cc(N2CCNCC2)ccc1[N+](=O)[O-]	4.7	35	.	.	.	.	0.3	-1	42	-1
O=C(NCCCN1CCC(Cc2ccccc2)CC1)C1CC(=O)N(C2CCCC2)C1 (configuration not stated)	3.8	13	3	3	0.6	1	-0.3	-6	-2	.
O=C(Nc1ccc(Cl)cc1)c1ccc2c(c1)OCO2	0.4	-12	.	.	.	-5	-10	0	-1	0
CCOC(=O)C1(CCc2ccccc2)CCN(Cc2cc(OC)c(OC)cc2OC)CC1	-2.3	-3	-15	-14	-1.0	0	-0.4	.	3	.

An excerpt from above in order of their number in rRNA inh HTS OD600, smallest number first:
compound | rRNA inh HTS OD600
O=C(NCCCN1CCC(Cc2ccccc2)CC1)C1CC(=O)N(C2CCCC2)C1 (configuration not stated) | 3
CCN1CCN(c2nc(-c3cccs3)nc3ccccc23)CC1 | 6
COC(CSc1nc(N)c2c3c(sc2n1)CN(C)CC3)OC | 15
